Calb biofilm kill: clotrimazole potentiators killing C. albicans biofilm, primary screen, 4-compound mixtures. AID 1242, 2008. 120,000 tested, 0.02% active. C. albicans biofilm persisters + clotrimazole, fluorescence viability; primary screen in compound mixtures of four per well. inhibition, % at 7.6 µM;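 active = inhibition above 30.3% in the primary screen of four-compound pools, then above 30% when the compound was retested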;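 also: compounds exposed to preformed 24 h biofilms for 48 h; the number belongs to the whole pool; some results filed as inactive read as strong as hits; inactives centre near 12; 0% = biofilm with clotrimazole alone and 100% = kill control; retested singly at about 60 µM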
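Probe or stimulus – Clotrimazole 50 µg/mL co-treatment · System – C. albicans biofilms · Schedule – 24 h biofilm formation, then 48 h compound exposure, 37 °C · Evaluation – percent inhibition of biofilm viability · Technique – 2-h Alamar Blue fluorescence, 535/590 nm excitation/emission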
Numbers without * were called inactive.

SMILES	Calb biofilm kill
O=c1[nH]nc(SCCS(=O)(=O)c2ccc(F)cc2)n1-c1ccccc1C(F)(F)F	15
Cc1[nH]n(-c2ccccc2)c(=O)c1N=O	17
C=CCN1C(=O)N/C(=C/c2ccc(C)o2)C1=O	20
O=C(NC1=NCCS1)c1ccccc1OCc1ccccc1Cl	3
COc1ccc(NC(=O)CCSc2nnnn2C)cc1	18
COc1cc(CCC(O)CC(=O)CCc2ccccc2)ccc1O (centres undefined)	15
N/C(=N\OC(=O)COc1ccc(Br)cc1)c1ccncc1	12
Cc1ccc(OCc2cnc(Cl)s2)c(C)c1	17
Cc1ccc(CNc2ccc(N3C(=O)CC(C)C3=O)cc2[N+](=O)[O-])cc1 (centres undefined)	9
COc1ccc(N2CCN(CC(=O)c3c(C)n(C)c4ccc(OC)cc34)CC2)cc1	24
N=C1C(c2ccccc2)=C(O)CN1c1cccc(S(=O)(=O)Nc2cccc(C(F)(F)F)c2)c1	28
COCC(=O)n1nc(-c2ccccc2)nc1NCc1ccccc1	-5
O=C1N=C(N2CCCCC2)S/C1=C\c1cn[nH]c1-c1ccccc1	21
CCCN1C(=O)/C(=C/c2ccccc2OCc2ccc(C(=O)O)cc2)NC1=S	17
COc1cc(CC(=O)OCC(=O)Nc2ccc(Cl)c(S(=O)(=O)N(C)C)c2)cc(OC)c1OC	12
Cc1ccc(C(=O)CC(=O)COc2ccc(Cl)cc2)cc1	9
CCN1CCN(c2ncnc3c2cnn3-c2ccc(Cl)cc2)CC1	13
O=[N+]([O-])c1ccc(N=Cc2sc3ccccc3c2O)cc1	18
O=C(NC(=S)NCCCN1CCOCC1)c1ccco1	10
Cc1ccc(NC(=O)COc2ccc(Br)cn2)cc1	14

Retrieved by compound from the list above, 3 records:
SMILES	Calb biofilm kill
Cc1[nH]n(-c2ccccc2)c(=O)c1N=O	17
N/C(=N\OC(=O)COc1ccc(Br)cc1)c1ccncc1	12
O=c1[nH]nc(SCCS(=O)(=O)c2ccc(F)cc2)n1-c1ccccc1C(F)(F)F	15

Additional compounds.
SMILES	Calb biofilm kill
CC(=O)c1sc(NS(=O)(=O)c2ccc(C)cc2)nc1C	20
Cc1cc2ccccn2c1C(=O)c1cccc(S(=O)(=O)N2CCOCC2)c1	0
COc1ccc(C2Nc3ccccc3C(=O)N2NS(C)(=O)=O)cc1OC (centres undefined)	-5
O=C(COC(=O)Cc1ccccc1F)Nc1ccc(Cl)cn1	-1
CCOC(=O)C1=C(C(F)(F)F)Nc2ncnn2C1c1ccc(OC)cc1OC (centres undefined)	12
CC(C)(C)N(Cc1ccccc1)C(=O)COC(=O)CCc1c[nH]c2ccccc12	12
CCN(CC)C(=S)Nc1cc(C(=O)OC)ccc1C(=O)OC	10
COc1ccc(NC(=S)N(Cc2ccc(C)cc2)Cc2ccccn2)cc1	25
O=[N+]([O-])c1ccc(C2=Nn3c(Cn4nnc5ccccc54)nnc3SC2)cc1	6
CCn1ccnc1CNCc1cn(-c2cc(C)ccc2C)nc1-c1ccccc1	12
Cc1cc(C)cc(N2C(=O)CSC2c2ccccn2)c1 (centres undefined)	4
CCC1Sc2ccccc2N(CC(=O)NC2CCCCC2)C1=O (centres undefined)	20
CC1CN(c2ccc(Oc3ccccc3)cc2)c2nc3c(c(=O)n(CC(N)=O)c(=O)n3C)n2C1 (centres undefined)	15
O=C1S/C(=C\c2ccccc2)C(=O)N1CC(O)Cn1c2ccccc2c2ccccc21 (centres undefined)	16
COC(=O)N/N=C/c1ccc(-c2ccccc2Cl)o1	14
COc1ccc(CCNc2nc(-c3ccncc3)cs2)cc1OC	18
COc1ccc(CCNC(=O)c2ccc([N+](=O)[O-])cc2)cc1	20
CCCNC(=O)COC(=O)c1ccc(-c2ccccc2)cc1	5
CC(CCc1ccccc1)NC(=O)COC(=O)c1cc(NS(=O)(=O)c2ccc(Cl)c([N+](=O)[O-])c2)ccc1O (centres undefined)	3
Cc1cc(C)nc(Sc2nc(Nc3ccccc3)nc(Sc3nc(C)cc(C)n3)n2)n1	8

In a second layout: seven of the compounds above
canonical_smiles,Calb biofilm kill
O=C(NC(=S)NCCCN1CCOCC1)c1ccco1,10
O=[N+]([O-])c1ccc(C2=Nn3c(Cn4nnc5ccccc54)nnc3SC2)cc1,6
Cc1ccc(OCc2cnc(Cl)s2)c(C)c1,17
O=C(COC(=O)Cc1ccccc1F)Nc1ccc(Cl)cn1,-1
N=C1C(c2ccccc2)=C(O)CN1c1cccc(S(=O)(=O)Nc2cccc(C(F)(F)F)c2)c1,28
CCN1CCN(c2ncnc3c2cnn3-c2ccc(Cl)cc2)CC1,13
Cc1cc2ccccn2c1C(=O)c1cccc(S(=O)(=O)N2CCOCC2)c1,0

Entries above with an aryl thioether with sulfur outside any ring (3):
SMILES	Calb biofilm kill
O=c1[nH]nc(SCCS(=O)(=O)c2ccc(F)cc2)n1-c1ccccc1C(F)(F)F	15
COc1ccc(NC(=O)CCSc2nnnn2C)cc1	18
Cc1cc(C)nc(Sc2nc(Nc3ccccc3)nc(Sc3nc(C)cc(C)n3)n2)n1	8

Continuation.
SMILES	Calb biofilm kill
CCN(CC)S(=O)(=O)c1ccc(NS(=O)(=O)c2cccs2)cc1	19
O=C(O)c1cccc(NC(=O)c2cc(-c3cccc(Cl)c3)nc3ccccc23)c1	16
COc1ccc(OCC#CCn2ccnc2)cc1	10
C=CCN1C(=O)/C(=C/c2cccs2)S/C1=N\S(=O)(=O)c1ccc(F)cc1	10
COc1ccc(CCN(C)C(=O)CNC(=O)c2ccccc2F)cc1OC	9
O=[N+]([O-])c1ccc(-c2cn(-c3ccc(Cl)cc3)c(=S)[nH]2)cc1	16
O=c1sc2ccccc2c(N2CCCCC2)c1[N+](=O)[O-]	16
O=C1C2C3c4ccccc4C(c4ccccc43)[C@@H]2C(=O)N1c1cccnc1 (some centres undefined)	10
CSc1nc2c(cnn2-c2ccccc2)c(=O)n1N	10
Cc1ccc(NC(=O)Cn2cccc2C2=NC(c3ccccc3)CO2)c(C)c1 (centres undefined)	11
Cc1cc(C)c[n+](-c2[nH]c(=O)sc2/C=N/NC([S-])=Nc2ccccc2)c1	9
CC(C)c1ccc(CNc2ccc([N+](=O)[O-])cn2)cc1	5
COc1ccc(-c2oc3ccccc3c(=O)c2OCC(=O)O)cc1	11
CC1CCCN(C(=S)Nc2ccc3nc4n(c(=O)c3c2)CCCCC4)C1 (centres undefined)	6
CCOC(=O)C1=C(CN2CCCCCC2)NC(=O)NC1c1cccc([N+](=O)[O-])c1 (centres undefined)	13
O=C(Nc1cccc([N+](=O)[O-])c1)Nc1cccc([N+](=O)[O-])c1	12
Cc1ccc(F)cc1NC(=O)Nc1cc(C(C)(C)C)nn1C	11
COc1ccc(/C=C2/C(=O)OCc3cc(OC)c(OC)cc32)cc1	9
O=C(O)CSCC(=O)NCc1cccc(C(F)(F)F)c1	10
CCN(CC)S(=O)(=O)c1ccc(N/N=C/c2ccc(O)cc2O)nc1	4
CC(=O)c1ccc(N2CCN(C(=O)c3cc(-c4cccnc4)nc4ccc(Br)cc34)CC2)cc1	18
Cc1nnc(-c2ccc(Oc3ccc(Cl)cc3)c([N+](=O)[O-])c2)o1	16
Cc1ccccc1OCC(O)CN1CCC(C)CC1 (centres undefined)	-4
CCCSc1nc2[nH]ncc2c(=O)[nH]1	13
O=C(O)/C=C\C(=O)Nc1ccccc1C(=O)NC1CCCCC1	29
O=C(Nc1ccc2c(c1)OCO2)N1CCCC1	6
N/C(Cc1cccc2ccccc12)=N\OC(=O)c1cccs1	6
Cc1nnc(NC(=O)CCC(=O)N2CCN(CCOc3cccc4ccccc34)CC2)s1	26
O=C1NC(=Nc2ccccc2)SC1Cc1cccc(Cl)c1Cl (centres undefined)	13
COc1ccccc1CNc1cc(-c2ccccc2)ccc1OC	13
COc1cccc(C2=Nc3cccc4cccc(c34)N2)c1	3
COc1ccc(N2C(=O)CN(Cc3cc(OC)c(OC)c(OC)c3)C2=S)cc1	15
CN(C)/C=N/c1cc(=O)n(C)c(=O)n1CC1CC1	8
CCOC(=O)c1ccc(NC(=O)c2c(NC(=O)CCC(=O)O)sc3c2CCCCC3)cc1	12
O=C(CSc1n[nH]c(=O)[nH]c1=O)c1ccccc1[N+](=O)[O-]	21
COc1ccccc1C1=NN(C2=NN=C(N)Cc3ncnn32)C(O)(C(F)(F)F)C1 (centres undefined)	10
CCOC(=O)c1c(CS(=O)(=O)c2ccccc2)n(C)c2cc(Br)c(O)c(CN(C)C)c12	9
CCN=C(Nc1ccc2c(c1)OCO2)SC1CC(=O)N(c2ccc(OC)cc2)C1=O (centres undefined)	11
CC1(C)CC(=O)C2=C(C1)NC(=S)C(C#N)C21CCCCC1 (centres undefined)	17
O=C(O)c1nc2nc(Cl)c(Cl)nc2[nH]1	18
CCC[N+]1(CC#CC(O)(c2ccccc2)C2CCCCC2)CCCCC1 (centres undefined)	1
COc1ccc(C(=O)/C=C/C(=O)N(CC(=O)NC2CCCCC2)Cc2ccccc2OC)c(O)c1	8
Cc1ccc(CN2CCN(Cc3cnc(C)s3)CC2CCO)cc1 (centres undefined)	2
CCn1cc(C(=O)OCC(=O)c2cc(C)n(-c3ccccc3)c2C)c(=O)c2ccc(C)nc21	-3
Nc1nn2c(-c3ccccc3)cc(=O)[nH]c2c1N=Nc1ccc(Br)cc1	6
COc1ccccc1CN1C[C@@H]2C[C@@H](C3=Cc4cccc(OC)c4OC3)N3CCC[C@@]23C1=O	9
COc1cc(OC)cc(C(=O)N[C@H](C(=O)N2CCc3ccccc32)C(C)C)c1	9
N=c1c2c(n(Cc3cccc(Cl)c3)c3c1CCC3)CCCC2	-3
CCN(Cc1ccccc1)c1ccc(/C=N/NC(=S)NC(C)C)cc1	5
C=CCSc1nnc(NC(=O)Cc2ccc(OC)c(OC)c2)s1	-1
Cc1c(NC(=O)CNCc2ccc3c(c2)OCO3)c(=O)n(-c2ccccc2)n1C	20
CSc1ccc(C#N)cc1NC(=O)c1cccnc1Cl	-20
Cn1cccc1/C=N/NC(=O)c1ccccn1	22
O=C(c1ccccn1)c1cc2ccccc2n1S(=O)(=O)c1ccccc1	20
CC(C)NC(=O)COC(=O)c1cccc(NS(=O)(=O)/C=C/c2ccccc2)c1	23
CC(=O)c1cccc(NC(=O)COC(=O)c2ccc3c(c2)OCCO3)c1	8
O=C(O)c1cc(-c2cccc([N+](=O)[O-])c2)nc2ccccc12	8
CCN(CC)C(=O)CC(c1ccc(OC)cc1)c1c(O)cc(OC)cc1OC (centres undefined)	7
CCCc1cc(NCCCN2CCOCC2)n2c(nc3ccccc32)c1C#N	20
COc1ccc(NC(C)=O)cc1NC(=O)c1cccc(C(F)(F)F)c1	12

(further entries)
SMILES	Calb biofilm kill
COc1ccc(C(=O)Nc2ncc(C)s2)cc1S(=O)(=O)N1CCCC1	36
O=C(NC(=S)Nc1ccc(CN2CCOCC2)cc1)c1ccc2c(c1)OCCO2	21
CN(C)S(=O)(=O)c1cccc(NC(=S)NC(=O)C2CCCCC2)c1	-3
CC(C)C(=O)Nc1cc(S(=O)(=O)Nc2cccc(Cl)c2)ccc1Cl	11
CC(=O)Nc1cccc(S(N)(=O)=O)c1C	12
COc1cc(/C=C(\C#N)c2nc(-c3cc4ccccc4oc3=O)cs2)ccc1O	10
Cc1ccc(S(=O)(=O)N2CCOCC2)cc1NC(=O)CN(C)C1CCS(=O)(=O)C1 (centres undefined)	17
Nc1nc(CSC(=S)N2CCN(c3ccccc3)CC2)nc(Nc2ccccc2)n1	15
O=C(O)c1ccc(/C=C(\c2nc3ccccc3[nH]2)c2nc3ccccc3s2)cc1	12
Cc1cccc(NC(=S)N2CCC(c3nc4ccccc4o3)CC2)c1	14
CCC(=O)c1ccccc1OCCN1CCN(Cc2ccccc2)CC1	-9
O=C1CN(CC(=O)Nc2ccc(SC(F)F)cc2)CCN1	19
Cc1cccc(OCC(=O)N/N=C/CC(C)c2ccccc2)c1C (centres undefined)	18
CC(C)CCNC(=O)c1ccc2c(c1)ncn2C1CCCC1	13
Cc1cccc(OCCn2c(=S)[nH]c3ccccc32)c1	9
C=C(C)COc1ccc2c(CC)cc(=O)oc2c1	16
CCOP(=O)(OCC)C(NC(=O)Nc1cccc(Cl)c1)C(N)=O (centres undefined)	22
COc1ccc(C(CC(=O)N2CCN(c3ccccc3)CC2)c2c(OC)cc(OC)c3ccc(=O)oc23)cc1 (centres undefined)	16
CCOC(=O)Cn1cc(Cl)c(=O)c(Cl)c1	19
CCCC(=O)Nc1ccccc1Sc1ncnc2scc(-c3ccccc3)c12	12

3 structures already listed, ordered by length of the SMILES, smallest number first.
SMILES	Calb biofilm kill
CCOC(=O)Cn1cc(Cl)c(=O)c(Cl)c1	19
CCC1Sc2ccccc2N(CC(=O)NC2CCCCC2)C1=O (centres undefined)	20
CC(=O)c1cccc(NC(=O)COC(=O)c2ccc3c(c2)OCCO3)c1	8

More structures:
SMILES	Calb biofilm kill
Cc1csc(/N=C/N(C)C)c1C#N	12
CC(=O)N1[C@H](C)C=C[C@]1(Cc1ccccc1)C(=O)NCc1cc(F)cc(C(F)(F)F)c1	9
CSc1ccccc1C(=O)Nc1ccc2c(c1)OCO2	8
Cc1cc(N2CCN(Cc3nc(-c4ccc(Cl)cc4)oc3C)CC2)cc(C)n1	22
COc1ccccc1NS(=O)(=O)c1ccc(O)c(C(=O)OCC(=O)N2c3ccccc3CC2C)c1 (centres undefined)	12
CCOc1ncccc1C(=O)OCC(=O)c1ccc(F)cc1	14
O=C(NC1CCCCC1)c1cccc(COCC(F)(F)F)c1	9
O=C(COc1ccccc1-c1ccccc1)N/N=C/c1cccnc1	8
Cc1ccc(S(=O)(=O)Nc2ccccc2C=Nc2cccc(C)c2C)cc1	5
COc1ccc(NC(=O)Cc2c[nH]c3ccccc23)cc1S(=O)(=O)N1CCOCC1	10
CCCc1nc(NCC2CCCO2)c2nnn(Cc3ccccc3)c2n1 (centres undefined)	3
Cc1cccc(NC(=S)NC(C)C(c2ccccc2)N2CCN(C)CC2)c1C (centres undefined)	3
c1ccc2[nH]c(SCc3cn4ccccc4n3)nc2c1	12

Not all compounds are listed; the hit share may differ from the screen's.
